# Screening data (PubChem BioAssay)
# AmpC nodet inh: Promiscuous and Specific Inhibitors of AmpC Beta-Lactamase (assay without detergent); AmpC nitrocefin hydrolysis, absorbance 480 nm, no detergent; potencies from a single point are estimates; Potency, µM (series often up to 28.7 µM), for inactives: at the top dose activity change, negative = inhibition; 1.8% of 71,000 active; active = falling curve, for most hits resting on a single point; inconclusive = weak or doubtful change; inactive = flat or rising curve; also: % of control where 0% means no effect; about half of the hits show no inhibition at the top dose; a quarter of the inactives give rising signals
# Target sequence (P00811 whole entry, looked up): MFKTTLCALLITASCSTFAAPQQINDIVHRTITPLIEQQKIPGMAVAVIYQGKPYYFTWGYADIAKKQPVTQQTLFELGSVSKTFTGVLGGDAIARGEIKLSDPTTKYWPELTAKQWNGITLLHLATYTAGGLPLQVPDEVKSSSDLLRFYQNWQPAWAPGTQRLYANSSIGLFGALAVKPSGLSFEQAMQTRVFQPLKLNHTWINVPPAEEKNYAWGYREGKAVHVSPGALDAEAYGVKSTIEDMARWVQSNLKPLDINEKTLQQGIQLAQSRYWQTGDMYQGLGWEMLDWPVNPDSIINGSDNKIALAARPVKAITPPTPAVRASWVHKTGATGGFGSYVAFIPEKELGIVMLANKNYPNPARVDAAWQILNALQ
#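 AmpC in 20 mM phosphate buffer pH 7.0 was preincubated 15 min at room temperature with compounds. Nitrocefin (800 uM stock) was then added and hydrolysis followed at 480 nm every 20 s for 4 min.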
# Active calls of the source: *; & = joins results of further samples; [ ] = dose if it differs, or a comment. Potency is read from the fitted curve at half-maximal effect.
# The opening 2 records as a preview:
SMILES,AmpC nodet inh
COc1cccc(Cn2c(C3CC3)nc3ccc(NC(=O)c4ccco4)cc3c2=O)c1,45%
O=C(c1ccncc1)N1CCC2(CCCN(Cc3ccncc3)C2)CC1,13%

# The whole of this part, repeating the preview:
SMILES,AmpC nodet inh
COc1cccc(Cn2c(C3CC3)nc3ccc(NC(=O)c4ccco4)cc3c2=O)c1,45%
O=C(c1ccncc1)N1CCC2(CCCN(Cc3ccncc3)C2)CC1,13%
Cn1c(=O)oc2cc(S(=O)(=O)NC(Cc3ccccc3)C(=O)N3CCCCC3)ccc21 (centres undefined),4µM*[single pt active]
COc1cc(OC)cc(-n2nc(C(=O)NCCCN3CCOCC3)c3ccccc3c2=O)c1,51%
CCOc1ccccc1OCC(=O)Nc1ccc(S(=O)(=O)Nc2nc(C)cc(C)n2)cc1,5%
O=P(c1ccccc1)(c1ccccc1)C(O)c1ccco1 (centres undefined),2%
COc1ccc(OC)c(-c2cc(C(=O)N3CCc4ccccc4C3)no2)c1,33%
CCOC(=O)N1CCN(CC(=O)n2c(C)c(C)c3ccccc32)CC1,108%
Cc1[nH]nc2c1C(c1cn[nH]c1-c1ccc(F)cc1)C(C#N)=C(N)O2 (centres undefined),-14%
O=C1CC(c2cccc(Br)c2)C2=C(CCCC2=O)N1 (centres undefined),-3%
CN(C)CCNc1oc(COc2ccc(Cl)cc2)nc1C#N,11%
N#Cc1nc(-c2ccc(OCc3ccccc3)cc2)oc1N1CCC(C(N)=O)CC1,82%
O=C(c1ccc(Br)cc1)N1CCN(S(=O)(=O)c2ccccc2)CC1,56%
CCCCCn1c(=O)c(C(=O)NCc2ccccn2)c(O)c2ccccc21,-6%
CCOc1ccc2[nH]c(=O)c(CN(Cc3ccco3)C(CC)c3nnnn3Cc3ccccc3)cc2c1 (centres undefined),11%
O=C(c1cc(C(F)(F)F)cc(C(F)(F)F)c1)N1CCC[C@@]2(CCN(c3ncccn3)C2)C1,104%
Cc1cccc(-c2nsc(SCC(=O)NCc3ccco3)n2)c1,-4%
O=C(Nc1ccccc1N1CCN(C(=O)c2ccc(Cl)cc2)CC1)c1cc2ccccc2o1,-16%
CCC(=O)N(Cc1ccc(S(N)(=O)=O)cc1)C1CC(=O)N(c2ccc(OC)cc2)C1=O (centres undefined),5%
Cc1occc1-c1nnc(SCC(=O)Nc2ccc(F)cc2)n1Cc1ccccc1,46%
Cc1nn(Cc2ccccc2)c(N)c1-c1ccccc1,-8%
COc1ccc(CSc2nnc(N)s2)cc1F,-8%
O=C(NCN1C(=O)C2C3C=CC(C3)C2C1=O)Nc1nccs1 (centres undefined),-9%
O=C(O)CC(C(=O)O)C(CC(=O)O)C(=O)O (centres undefined),-15%
O=C(c1csc2ccccc12)N1CCN(c2ccccn2)CC1,5%
Cn1nnc(NC(=O)C(c2ccccc2)c2ccccc2)n1,5%
Cc1ccc(C)c(N(CC(=O)NC2CCCC2)C(=O)CCCC(=O)Nc2ccccn2)c1,60%
CC(=O)c1ccccn1,1%
COC(=O)[C@@H]1c2cc3c(c(O)c2[C@@H](O)C[C@]1(C)O)C(=O)c1c(O)cc2c(c1C3=O)O[C@H]1O[C@@]2(C)[C@@H](O)[C@H](N(C)C)[C@H]1O,0%[5.75 µM]
CC(C)c1ccccc1NC(=O)CCCC(=O)O,0%
COc1ccc(-n2nc(C(=O)N3CCN(Cc4ccc5c(c4)OCO5)CC3)c3ccccc3c2=O)cc1,106%
CCOC(=O)C(CC)Sc1nc(-c2ccc(OC)cc2)nc2c1c(=O)n(C)c(=O)n2C (centres undefined),18%
O=C(O)c1ccncc1.O=C(O)c1ccncc1.[NH2-].[NH2-].[Pt],0%[5.75 µM]
CN[C@H]1[C@@H](O[C@@H]2[C@H](O[C@@H]3[C@@H](O)[C@@H](O)[C@@H](N=C(N)N)[C@@H](O)[C@@H]3N=C(N)N)O[C@H](C)[C@@]2(O)C=O)O[C@@H](CO)[C@@H](O)[C@H]1O,-5%[12.8 µM]
Nc1nnc(SCC(=O)N2CCN(c3ccccc3)CC2)n1-c1ccccc1,32%
CCOC(=O)N1CCN(C(=O)c2ccc(Cl)c(S(=O)(=O)N3CCOCC3)c2)CC1,32%
O=C1CCCN1CC#CCN1CCCC1,9%&-2%
CN1CCN(c2ccc(NC(=O)COc3ccc(Cl)cc3Cl)cc2)CC1,58%
COc1ccc(S(=O)(=O)Cc2ccc(C(=O)N3CCN(c4ccccc4F)CC3)o2)cc1,99%
Cc1c(Cl)cccc1NC(=O)C[C@H]1Sc2ccccc2NC1=O,-3%[5.75 µM]
O=S1(=O)NC(=NCc2ccco2)c2ccccc21,-8%
COc1ccc(-c2nsc3c(N4CCN(C(=O)c5ccco5)CC4)ncnc23)cc1,141%
CC1=NN(C(=O)c2ccncc2)C(=O)[C@@H]1N=Nc1ccc2ccccc2c1,31%[5.75 µM]
COc1cc(C2NC(=O)N(C)C3=C2C(=O)CCC3)cc(OC)c1OC (centres undefined),-2%
CC(=O)/C(C(=N)N1CCN(c2cccc(Cl)c2)CC1)=C(\C)O,-2%
CCc1nnc(NC=C2C(=O)OC(C)(C)OC2=O)s1,-2%
Cc1ccc(C)c(N2CCN(C(=O)C3CCCN(S(=O)(=O)c4cnc[nH]4)C3)CC2)c1 (centres undefined),95%
CCOC(=O)N1CCC(NC(=O)CCC(=O)N2CCOc3ccccc32)CC1,23%
CC1(C)CC(NC(=O)c2coc(=O)c(Br)c2)CC(C)(C)N1,-7%
Cn1cnc([N+](=O)[O-])c1Sc1nc(N)nc2c1ncn2Cc1ccccc1,0%[5.75 µM]
CC(C)(C)NC(=O)CSc1nnc(-c2ccco2)n1Cc1ccco1,15%
Cc1occc1-c1nnc(SCC(=O)Nc2ccccc2)n1Cc1ccccc1,32%
Cc1ccc2[nH]c(=O)c(C(c3nnnn3C3CCCC3)N(Cc3cccnc3)Cc3ccco3)cc2c1 (centres undefined),88%
COc1cccc(CNC(=O)C2CCCN(S(=O)(=O)c3c(C)n[nH]c3C)C2)c1 (centres undefined),12%
CCOc1ccccc1-n1c(SCC(N)=O)nnc1-c1ccccc1,13%
Cc1cc(C)cc(C(=O)OC2C[C@H]3CC[C@@H](C2)N3C)c1 (some centres undefined),24%
CCn1c(SCC(=O)NCC2CCCO2)nc2cc(S(=O)(=O)N3CCCCC3)ccc21 (centres undefined),82%
CC(C)c1ccc(/C(C(=O)O)=C(\O)C(=O)O)cc1,-14%[5.75 µM]
CC(=O)c1sc(N2C(=O)c3oc4ccccc4c(=O)c3C2c2ccc(C)o2)nc1C (centres undefined),1%
Cc1nn(Cc2ccccc2)c(Cl)c1C(=O)OC1CCOC1=O (centres undefined),-4%

# Continuation:
SMILES,AmpC nodet inh
C=CCn1c(Br)nc2c1c(=O)[nH]c(=O)n2C,0%
Cc1cc(C)n(-c2ccc3cccc(NS(C)(=O)=O)c3n2)n1,13%
N#Cc1nc(N2CCCC2)nc(N2CCCC2)n1,10%
O=C(CCNS(=O)(=O)c1cccc2nonc12)NCc1cccs1,-6%
Fc1ccc(-c2nnc(-c3ccc(Cl)cc3)o2)cc1,-6%
Cc1cccc(Cc2c(C)nc3c(C(=O)NCc4ccco4)cnn3c2C)c1,48%
COc1ccc(CCN(Cc2cccs2)S(=O)(=O)c2ccc(-n3cnnn3)cc2)cc1OC,98%
O=C1N2CN(C(c3ccccc3)c3ccccc3)CN=C2SC1(CO)CO,13%
O=c1cc(CN2CCc3ccccc32)nc2sccn12,33%
COc1cc(/C=N/n2cnnc2)ccc1OC(=O)N(C)C,3%
CCCC(=O)Nc1ccccc1NC(=O)C1CCCCC1,-12%
O=S(=O)(CCn1cccc1)CCn1cccc1,13%
O=C(CCN1CCOCC1)NCC(=O)Nc1ccc(Br)cc1C(=O)c1ccccc1,112%
CCN1C(=O)CS/C1=N\c1nccs1,-13%
N#CCSc1nnc(CNc2cccc(Cl)c2)o1,-23%
CCCNS(=O)(=O)c1ccc(CCC(=O)N2CCCCC2)cc1,20%
COCCn1c(=O)[nH]c2cc(C(=O)NCCN3CCN(c4ccc(OC)cc4)CC3)ccc2c1=O,46%
COCCn1nnnc1C(c1ccc2ncccc2c1)N1CCc2ccccc21 (centres undefined),89%
Cc1ccc(Cl)cc1-n1c(O)c(C=NCCCN2CCOCC2)c(=O)[nH]c1=O,7%
Cn1c(=O)c(-c2cccc(C#N)c2)nc2cnc(Oc3ccccc3)nc21,-3%
Cc1nn(C2CCCCC2)c(N)c1-c1ccccc1,23%
O=C(Cn1nnc(-c2ccccc2-n2cnnn2)n1)c1ccccc1,-5%
O=C(CSCc1cccc(F)c1)N1CCN(c2ccccc2)CC1,45%
COC(=O)CNC(=O)[C@@]1(C)C=C[C@@H](Cc2ccccc2)N1C(C)=O,-2%
O=C(Nc1ccc(F)cc1)NC1CCN(Cc2nnnn2Cc2ccco2)CC1,-1%
O=C(Nc1c(F)cc(F)cc1Br)c1cccnc1,2%
CCCn1c(-c2ccc(F)cc2)nc2c(NC(C)CCCN(CC)CC)nc(C)nc21 (centres undefined),48%
O=c1c2ccccc2nc2sc3ccccc3n12,-8%
CN1CCN(C(=O)NC2CCCN2S(=O)(=O)c2ccc(Cl)cc2)CC1 (centres undefined),-13%
COc1ccc(O)c(-c2[nH]ncc2C(=O)c2ccccc2C)c1,1%
Cc1ccccc1C(=O)/C=C1\NC(=O)CS1,-4%
CC(CN(C)Cc1ccccc1)OC(=O)c1cccs1 (centres undefined),1%
CCNc1ncc2nc(C)c(=O)n(C3CC3)c2n1,-18%
N#CCCn1ncc2ccccc21,2%
Cc1c(C(=O)NC2CC2)oc2ccc(S(=O)(=O)N3CCCCCC3)cc12,76%
Cc1ccc(C)c(N2CCN(C(=O)CN(C)S(=O)(=O)c3ccc4c(c3)CCC(=O)N4)CC2)c1,117%
COc1cc2nc(C3CC3)n(NC(=O)c3ccc(Cl)cc3)c(=O)c2cc1OC,81%
COC(=O)[C@@]1(Cc2ccc(OC)cc2)[C@H]2c3cc(C(=O)N(C)C)n(CCO)c3C[C@H]2CN1C(=O)c1ccccc1,151%
O=C1c2cccnc2C(=O)N1Cc1ccccc1,-3%
CN(C)c1ccc(-c2cncnc2Nc2ccccc2)cc1,38%
Cc1ccc(-c2nc3cccnc3o2)cc1NC(=O)COc1ccc(Cl)cc1C,3%
Nc1nc(N)c2nc(CNc3ccc(C(=O)N[C@H](CCC(=O)O)C(=O)O)cc3)cnc2n1,6%
COc1ccc(CCNC(=O)CN(C)S(=O)(=O)c2cccs2)cc1OC,0%
Cc1cnn(Cc2ccccc2)c1N,1%
CCCSCCCNC(=O)Cn1cc2c(n1)CCCCC2,47%
CCCCc1n[nH]c2c1/C(=N/O)CC(c1ccccc1)C2 (centres undefined),-8%
COc1nc(NC(C)=O)nc(C)c1Br,2%
Cc1nn(C)cc1CNC(=O)c1cnn2c(C(F)F)cc(C3CC3)nc12,11%
CCNc1ncc2nc(-c3ccc(OC)cc3)c(=O)n(CCC#N)c2n1,12%
Cn1c(C(=O)NC2CCCCCC2)cc2c(=O)n(C)c3ccccc3c21,31%
CC(=O)n1cc(C2C(=O)CCCC2=O)c2ccccc21,-14%
CCCCC(=O)Cl,-9%
Cc1ccc(CNC(=O)CN2CCN(Cc3ccc(Cl)cc3)C2=O)cc1,32%
Cc1ccccc1Cn1nnc(-c2cccc(C(=O)O)c2)n1,-5%
COc1cc(OC)cc(C(=O)N2CCN(c3ncccn3)CC2)c1,24%
CCCC(=O)NC(c1ccco1)c1cc(Cl)c2cccnc2c1O (centres undefined),10%
CCN1C(=O)C2(C(C(=O)c3ccc(C)o3)=C(O)C(=O)N2CCCN2CCOCC2)c2ccccc21 (centres undefined),-7%
Cc1ccc(-c2noc(CN(C(=O)CCCN3C(=O)c4ccccc4C3=O)C(C)C)n2)cc1,98%
Cc1ccc(-c2nc(CS(=O)CC(=O)N3CCC4(CC3)OCCO4)c(C)o2)cc1 (centres undefined),54%
N[C@H](CCCP(=O)(O)O)C(=O)O,8%&-8%&-13%

# Other compounds
SMILES,AmpC nodet inh
O=C(c1cc(-c2ccc(F)cc2)on1)N1CCCC1,12%
CCCCc1nc2n[nH]c(N)c2c2c1CCC2,13%
O=C(NCc1ccco1)c1ccc(S(=O)(=O)N2CCCc3ccccc32)cc1,-10%
COCCNC(=O)COc1ccc(Nc2ccccc2)cc1,32%
COc1ccc2c(Cl)c(-c3nnco3)sc2c1,3%

# Rewritten with tabs: 20 of the compounds above
compound	AmpC nodet inh
COc1ccc(CCNC(=O)CN(C)S(=O)(=O)c2cccs2)cc1OC	0%
Cc1cnn(Cc2ccccc2)c1N	1%
CCCSCCCNC(=O)Cn1cc2c(n1)CCCCC2	47%
CCCCc1n[nH]c2c1/C(=N/O)CC(c1ccccc1)C2 (centres undefined)	-8%
COc1nc(NC(C)=O)nc(C)c1Br	2%
Cc1nn(C)cc1CNC(=O)c1cnn2c(C(F)F)cc(C3CC3)nc12	11%
CCNc1ncc2nc(-c3ccc(OC)cc3)c(=O)n(CCC#N)c2n1	12%
Cn1c(C(=O)NC2CCCCCC2)cc2c(=O)n(C)c3ccccc3c21	31%
CC(=O)n1cc(C2C(=O)CCCC2=O)c2ccccc21	-14%
CCCCC(=O)Cl	-9%
Cc1ccc(CNC(=O)CN2CCN(Cc3ccc(Cl)cc3)C2=O)cc1	32%
Cc1ccccc1Cn1nnc(-c2cccc(C(=O)O)c2)n1	-5%
COc1cc(OC)cc(C(=O)N2CCN(c3ncccn3)CC2)c1	24%
CCCC(=O)NC(c1ccco1)c1cc(Cl)c2cccnc2c1O (centres undefined)	10%
CCN1C(=O)C2(C(C(=O)c3ccc(C)o3)=C(O)C(=O)N2CCCN2CCOCC2)c2ccccc21 (centres undefined)	-7%
Cc1ccc(-c2noc(CN(C(=O)CCCN3C(=O)c4ccccc4C3=O)C(C)C)n2)cc1	98%
Cc1ccc(-c2nc(CS(=O)CC(=O)N3CCC4(CC3)OCCO4)c(C)o2)cc1 (centres undefined)	54%
N[C@H](CCCP(=O)(O)O)C(=O)O	8%&-8%&-13%
O=C(c1cc(-c2ccc(F)cc2)on1)N1CCCC1	12%
CCCCc1nc2n[nH]c(N)c2c2c1CCC2	13%

# The list is partial; the hit share may differ from the screen's.
